PrP UTR inh – inhibition of PrP 5' UTR reporter expression. inhibition, % (test concentration not listed). cell-based PrP 5' UTR mRNA reporter, plate reader. 0.35% of 340,000 active;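 active means every replicate at 50% or more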;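 further: 0 = median of the neutral control wells; tested in H4 reporter cells; numbers are from one replicate; inactives centre near -14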
RN4220 kill – growth inhibition of S. aureus RN4220, primary screen, OD600. 16 h. AID 1259311, 2017. inhibition, % (concentration not given with the values). 0.33% of 330,000 active;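 active means z-score of -3 or lower and OD600 up to 0.18 on both plates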;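 further: plate controls were untreated cells for no effect and reference antibiotic for full effect; stock transfer was 100 nL into about 80 µL; one replicate is shown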
Bead autofluor – flagged as autofluorescent in microsphere protease counterscreen | compound autofluorescence counterscreen, microsphere flow cytometry; stronger effect = higher value | fluorescence intensity (test concentration not listed) | 3.1% of 360,000 active;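 active means at least 3 SD above the mean of all compounds, about 16000 in these data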;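 further: 100 nL of 1 mM stock went into each well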
BJeLR lethal – MLPCN primary cell-based screen for lethality selective to Ras in HRASV12 cells; AID 1554, 2009; 0.17% of 300,000 active; BJeLR (HRASV12) viability, CellTiter-Glo ATP luminescence, 48 h; reference of the scale not given here; inhibition, % (concentration not given with the values);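 active means replicate mean above 50%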;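 further: 50 nL library stock added to about 25 µL; numbers are from one replicate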
ugtP null kill – growth inhibition of ugtP-null S. aureus, primary screen, RN4220 ugtP deletion, OD600 | 16 h; some inactives read as strong as hits | growth inhibition, % (no concentration beside the values) | 0.54% of 330,000 active | AID 1259309, 2017;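 active means z-score under -3 and OD600 up to 0.15 on both plates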;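 further: plate controls were untreated wells for no effect and antibiotic for full effect; wells of about 80 µL received 100 nL stock; the first replicate is given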
Mtb hypoxia rep – PubChem AID 1159583; M. tuberculosis hypoxia-regulated fluorescent reporter, fluorescence; fluorescence inhibition, % (test concentration not listed); 0.1% of 300,000 active;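 active means 35 to 45% if threefold the growth effect, above 45% if 1.5-fold the growth effect; inactive means the rest, general growth blockers included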;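 further: wells of about 50 µL received 100 nL stock; 0% = vehicle wells and 100% = reference inhibitor wells; whole bacteria with a GFP reporter of the hypoxia response; strong numbers were not always called active; many hits fall short of the cut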
Mtb hypoxia rep growth – further read-out of Mtb hypoxia rep, marked with its call; growth inhibition, %; measured here: M. tuberculosis growth (absorbance);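 0% = vehicle and 100% = reference antibiotic; read after six days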
Numbers without * were called inactive; x = no result given.

Compound	PrP UTR inh	RN4220 kill	Bead autofluor	BJeLR lethal	ugtP null kill	Mtb hypoxia rep	Mtb hypoxia rep growth
CCCc1cc(=O)[nH]c(SCC(=O)Nc2nc3ccc(OCC)cc3s2)n1	-24	-2.0	3243	6	5	-7	-4
CNS(=O)(=O)c1cc(NC(=O)c2cnc(SC)n2-c2ccccc2)ccc1C	-12	4.4	3783	-5	-5	13	8
O=C(NCCCN1CCCCC1)C1(S(=O)(=O)c2ccc(Cl)cc2)CC1	-25	5.1	6220	6	14	7	8
C[n+]1ccn(CC(=O)c2cc(C(C)(C)C)c(O)c(C(C)(C)C)c2)c1	-15	0.0	2916	-8	-3	-1	4
CCCn1c(N)c(N(CCOC)C(=O)/C=C/c2cccc(Cl)c2)c(=O)[nH]c1=O	-18	1.1	4163	8	4	5	4
Cc1cc(C)n(-c2ccc(C(=O)Nc3nnc(C)s3)cc2)n1	-26	-0.8	3760	-5	2	4	11
Cc1cc(OCC(=O)NCc2ccccn2)c2c(C)c(C)c(=O)oc2c1	5	4.2	4645	-10	19	6	3
COCCNC(=O)C1CC(=O)N(C2CCCCC2)C1 (configuration not stated)	-20	1.3	2971	2	3	5	3
CCCCCn1c(=N)c(S(=O)(=O)c2ccc(Br)cc2)cc2c(=O)n3cccc(C)c3nc21	-3	0.5	4863	-6	6	2	2
Cn1c(-c2ccc3c(c2)OCO3)cc(=O)c2ccccc21	-24	0.7	5518	-5	2	x	x
Cc1ccc(Cl)cc1NC(=O)CSc1nncn1-c1ccccn1	-11	4.0	5132	-4	-4	6	1
CCn1ncc(C2=NOC(C(=O)Nc3cccc(O)c3)C2)c1C (configuration not stated)	-9	-3.9	4419	0	-16	-1	5
Cc1ccc(NC(=O)CCC(=O)N/N=C/c2coc3ccccc3c2=O)cc1	-23	x	4164	6	x	x	x
CCCC(CCC)C(=O)Nc1cccc(C(=O)O)c1	-20	2.6	11122	2	1	3	2
COc1ccc(C=NNC(=O)c2cccc(O)c2)cc1Cn1nc(C)c([N+](=O)[O-])c1C	x	0.2	x	x	5	4	20
CCCC(=O)Nc1ccc(Nc2ccccc2)cc1	-32	2.6	2656	-5	11	9	0
O=C(Nc1nnc(S(=O)(=O)N2CCCCCC2)s1)c1ccccc1	-18	10	4352	7	11	3	5
COc1ccc(C=CC(=O)c2ccc(OC)cc2O)cc1	x	4.0	x	x	-20	9	6
COc1ccccc1N(CC(=O)Nc1ccccc1C)S(C)(=O)=O	-18	4.4	10372	-3	13	10	2
COc1ccc(C(CNC(=O)c2ccc(Cl)c(NC(=O)c3cccs3)c2)N2CCCC2)cc1 (configuration not stated)	-12	4.0	5724	7	7	7	11
Fc1ccccc1N1CCN(CC2CC3C=CC2C3)CC1 (configuration not stated)	-15	4.8	7627	-4	13	18	9
CC(C)c1ccc(NC2CCCN(C(=O)c3ccc(Cn4cnnn4)cc3)C2)cc1 (configuration not stated)	-15	3.6	5451	4	12	-8	-8
O=C(Nc1ccc(OC(F)(F)F)cc1)C1CCCN(C(=O)c2ccc(Cl)cc2)C1 (configuration not stated)	-29	3.5	8587	x	-7	14	5
CN1C(=O)c2ccccc2C(C(=O)O)C1c1cccc(F)c1 (configuration not stated)	-11	4.9	3992	2	-2	11	3
CCCNC(=O)c1cc2c(C(F)(F)F)nn(C)c2s1	-12	-2.7	2914	6	7	x	x

Next compounds
Compound	PrP UTR inh	RN4220 kill	Bead autofluor	BJeLR lethal	ugtP null kill	Mtb hypoxia rep	Mtb hypoxia rep growth
O=C(NNC(=O)c1ccc(-c2ccccc2)cc1)c1ccccc1	-76	-0.5	2508	-4	9	6	12
Cc1ccc(-c2cc(C(=O)N3CCOCC3)c3cc(C)ccc3n2)cc1	-43	0.2	5847	-9	5	15	6
CCC(=O)c1ccc(OCC(=O)N(CC)CC(=O)Nc2ccccc2OC)cc1	-26	-0.9	6026	x	6	10	7
CCOC(=S)SCc1cn2ccc(C)cc2n1	-18	2.4	8313	18	20	8	8
COc1ccc(NC(=O)CN(C)S(=O)(=O)c2cccs2)cc1	-37	3.3	4839	3	-5	x	x
CCOc1ccc(-c2cc(C(=O)Nc3ccc4c(c3)OCCO4)c3ccccc3n2)cc1	-40	-0.6	3177	5	-7	7	-3
COc1ccc(NC(=O)c2ccccn2)cc1OC	-44	1.4	2654	-4	-2	11	-3
COCCn1nnnc1CN1CCC(Cc2ccccc2)CC1	1	2.9	9359	-9	10	8	7
COc1ccccc1CN1CCN(C(=O)COc2ccccc2)CC1	-6	-2.1	3544	2	9	x	x
CCCCN(CCCNC(=O)Cn1ncc2ccsc2c1=O)Cc1ccccc1	-14	0.5	2079	1	1	14	2
O=C(CNCC1CCCO1)N1CCCCCC1 (configuration not stated)	1	0.2	4304	-3	5	6	6
CCOCCCNC(=O)C(NC(=O)Cc1cccs1)c1ccc(Cl)cc1 (configuration not stated)	-15	4.1	3467	1	1	7	2
CCc1cccc(NC2c3ccccc3C(=O)N2c2cccnc2)c1 (configuration not stated)	-16	3.0	4503	-4	6	10	13
COC(=O)c1ccc2c(=O)n(Cc3ccco3)c(SCC(=O)Nc3cc(C)on3)nc2c1	-29	11	2221	-10	-3	-1	2
CCN(CC)S(=O)(=O)c1cccc(C(=O)Oc2cccnc2)c1	-8	3.0	6562	-8	6	7	3
CC(C)CC(=O)NC(=S)Nc1ccc(N2CCOCC2)c(Cl)c1	-17	4.3	4330	x	2	x	x
CCOC(=O)C1C(c2ccc(C(=O)O)cc2)NC(=O)NC1(O)C(F)(F)F (configuration not stated)	-18	3.0	3913	-9	11	5	-5
CCOC(=O)N1CCC(Nc2c(N3CCN(c4cc(Cl)ccc4C)CC3)c(=O)c2=O)CC1	-31	-1.9	5886	4	9	3	15
O=C(NC1CCCC1)C(c1ccccc1)N(Cc1ccccc1)C(=O)c1csnn1 (configuration not stated)	-10	-0.5	3759	-3	3	7	-4
Cc1cc(-c2ccccc2)nc(=O)[nH]1	-13	-4.8	4132	0	-2	-6	0
Cc1ccc(-c2csc(NC(=O)CSC3=NCCS3)n2)cc1	-22	3.4	9122	-6	73	7	8
CN(Cc1c(F)cccc1Cl)C(=O)c1cc2ccccc2o1	-9	15	4852	5	2	-3	-1
CCOC(=O)c1ccc(NC(=O)N2CCOCC2)cc1	-48	7.1	4293	-6	2	0	14
CCOC(=O)N1CCN(S(=O)(=O)c2ccc(C(=O)Nc3sc4c(c3C(=O)OC)CCN(C)C4)cc2)CC1	-26	0.0	5246	14	2	1	0
CCOc1ccc(N(CC(=O)NN=Cc2cccnc2)S(C)(=O)=O)cc1	x	5.4	x	x	6	-8	1

For reference, 15 of the compounds above.
Compound	PrP UTR inh	RN4220 kill	Bead autofluor	BJeLR lethal	ugtP null kill	Mtb hypoxia rep	Mtb hypoxia rep growth
O=C(CNCC1CCCO1)N1CCCCCC1 (configuration not stated)	1	0.2	4304	-3	5	6	6
CCOCCCNC(=O)C(NC(=O)Cc1cccs1)c1ccc(Cl)cc1 (configuration not stated)	-15	4.1	3467	1	1	7	2
CCc1cccc(NC2c3ccccc3C(=O)N2c2cccnc2)c1 (configuration not stated)	-16	3.0	4503	-4	6	10	13
COC(=O)c1ccc2c(=O)n(Cc3ccco3)c(SCC(=O)Nc3cc(C)on3)nc2c1	-29	11	2221	-10	-3	-1	2
CCN(CC)S(=O)(=O)c1cccc(C(=O)Oc2cccnc2)c1	-8	3.0	6562	-8	6	7	3
CC(C)CC(=O)NC(=S)Nc1ccc(N2CCOCC2)c(Cl)c1	-17	4.3	4330	x	2	x	x
CCOC(=O)C1C(c2ccc(C(=O)O)cc2)NC(=O)NC1(O)C(F)(F)F (configuration not stated)	-18	3.0	3913	-9	11	5	-5
CCOC(=O)N1CCC(Nc2c(N3CCN(c4cc(Cl)ccc4C)CC3)c(=O)c2=O)CC1	-31	-1.9	5886	4	9	3	15
O=C(NC1CCCC1)C(c1ccccc1)N(Cc1ccccc1)C(=O)c1csnn1 (configuration not stated)	-10	-0.5	3759	-3	3	7	-4
Cc1cc(-c2ccccc2)nc(=O)[nH]1	-13	-4.8	4132	0	-2	-6	0
Cc1ccc(-c2csc(NC(=O)CSC3=NCCS3)n2)cc1	-22	3.4	9122	-6	73	7	8
CN(Cc1c(F)cccc1Cl)C(=O)c1cc2ccccc2o1	-9	15	4852	5	2	-3	-1
CCOC(=O)c1ccc(NC(=O)N2CCOCC2)cc1	-48	7.1	4293	-6	2	0	14
CCOC(=O)N1CCN(S(=O)(=O)c2ccc(C(=O)Nc3sc4c(c3C(=O)OC)CCN(C)C4)cc2)CC1	-26	0.0	5246	14	2	1	0
CCOc1ccc(N(CC(=O)NN=Cc2cccnc2)S(C)(=O)=O)cc1	x	5.4	x	x	6	-8	1

(next part)
Compound	PrP UTR inh	RN4220 kill	Bead autofluor	BJeLR lethal	ugtP null kill	Mtb hypoxia rep	Mtb hypoxia rep growth
Cc1ccc(NC(=O)CN2CCCCCC2)cc1[N+](=O)[O-]	-39	16	3963	-2	5	8	13
CC1CCN(C(c2ccc(N(C)C)cc2)c2nnnn2Cc2ccccc2)CC1 (configuration not stated)	-8	8.4	2215	-6	-1	x	x
Cc1cc(C)nc(N=C(N)Nc2cccc([N+](=O)[O-])c2)n1	x	3.7	x	x	6	-3	-2
COCCCNc1nc2nonc2nc1N1CCN(Cc2cccc(C)c2)CC1	-1	x	4328	-2	x	x	x
COc1ccc(NC(=O)[C@@H]2CCCN2C(=O)[C@@H]2Cc3ccccc3CN2C(=O)OC(C)(C)C)cc1	-15	-2.1	5459	6	-8	-5	5
O=C(/C=C/Nc1ccccc1)c1cnc(-c2ccccc2)s1	-55	-1.0	2658	9	-8	x	x
COc1ccc(N(Cc2ccccc2)S(=O)(=O)c2cccc(C(=O)O)c2)cc1	-1	8.9	3578	-8	1	9	3
CCCS(=O)(=O)N1CCCC(C(=O)Oc2ccc(C)c(C)c2)C1 (configuration not stated)	-17	2.6	4143	-4	10	6	2
COc1ccc(NC(=O)C2CC(c3cccc(Br)c3)=NO2)cc1OC (configuration not stated)	-24	2.3	3974	1	2	-1	-6
O=c1c(Cl)c(NCCO)cnn1-c1cccc(Cl)c1	-16	7.0	3468	7	13	-4	-6
COc1ccccc1N1C(=O)c2ccc(C(=O)Nc3cccc(C(C)=O)c3)cc2C1=O	-35	4.1	3825	-7	-7	-6	8
CCCOc1ccccc1OCC(=O)Nc1ccc(S(=O)(=O)N2CCCCC2)cc1	13	-3.0	6456	0	5	-1	-7
O=C(c1ccc(-c2nnc(-c3ccccc3)o2)cc1)N1CCCCCC1	-78	3.1	4400	14	-5	15	12
COCCCn1c(SCC(=O)NC2CCCCC2)nnc1-c1ccncc1	-31	1.1	10137	-5	-1	-6	-22
COc1ccc(/C(C)=N\NC(=O)CSc2nnc(C)s2)cc1	-12	x	2085	18	x	x	x
O=C(NCC1CCCO1)C(c1ccc(F)cc1)N(CCCN1CCOCC1)C(=O)c1ccc(-c2ccccc2)[nH]1 (configuration not stated)	x	2.4	x	-3	10	11	12
Cc1cc(C)n(CC(=O)NN=Cc2ccc(C)o2)n1	x	2.5	x	x	-1	1	11
CC(C)c1ccc(NC(=O)NCc2ccccn2)cc1	-24	-2.4	7157	-5	5	-1	-4
Cc1cc(C(=O)C(=O)N(C)C)c(C)n1-c1ccc(Cl)cc1	-27	3.3	2279	-5	-2	3	0
CCOC(=O)C(C(C)=O)c1nc(C)nc2c1nnn2Cc1ccccc1Cl (configuration not stated)	5	3.0	3426	5	4	-4	-3
CC(C)CNC(=O)C(=O)NC1CCCC1	-10	1.3	3146	-3	0	x	x
O=S(=O)(O)c1ccc(Cl)c(Cl)c1	-32	2.5	3522	x	8	11	8
Cc1cc(C)c(C(N)=O)c(Nc2cccc(Cl)c2C)n1	-18	0.0	7885	11	-3	7	4
COc1ccccc1N1CCN(/N=C/c2cc(OC)c(OC(C)=O)c(OC)c2)CC1	-14	x	4218	-13	x	x	x
O=C(Cc1ccc(-n2c(=O)c3sccc3n(Cc3ccc(F)cc3)c2=O)cc1)NCc1ccco1	2	1.6	5857	-2	13	3	0
COc1ccc(/C=C/C(=O)c2ccc3c(c2)OCO3)c(OC)c1	-72	12	2757	-3	18	-5	8
